Bioassay records (PubChem)
TRPV1 PAM: human TRPV1 potentiation | TRPV1-expressing cells, Fluo-8 calcium influx, capsaicin EC20 potentiation; host cell line not named in the record; control for the full effect not named in the record | AID 540277 | Q8NER1 | hit rate 0.02% among 320,000 | potentiation, % at 8.33 µM; active means potentiation above 80%; inconclusive means 30% to 80%; inactive means below 30%; also: 0% is about no effect
Target sequence (Q8NER1 whole entry, looked up): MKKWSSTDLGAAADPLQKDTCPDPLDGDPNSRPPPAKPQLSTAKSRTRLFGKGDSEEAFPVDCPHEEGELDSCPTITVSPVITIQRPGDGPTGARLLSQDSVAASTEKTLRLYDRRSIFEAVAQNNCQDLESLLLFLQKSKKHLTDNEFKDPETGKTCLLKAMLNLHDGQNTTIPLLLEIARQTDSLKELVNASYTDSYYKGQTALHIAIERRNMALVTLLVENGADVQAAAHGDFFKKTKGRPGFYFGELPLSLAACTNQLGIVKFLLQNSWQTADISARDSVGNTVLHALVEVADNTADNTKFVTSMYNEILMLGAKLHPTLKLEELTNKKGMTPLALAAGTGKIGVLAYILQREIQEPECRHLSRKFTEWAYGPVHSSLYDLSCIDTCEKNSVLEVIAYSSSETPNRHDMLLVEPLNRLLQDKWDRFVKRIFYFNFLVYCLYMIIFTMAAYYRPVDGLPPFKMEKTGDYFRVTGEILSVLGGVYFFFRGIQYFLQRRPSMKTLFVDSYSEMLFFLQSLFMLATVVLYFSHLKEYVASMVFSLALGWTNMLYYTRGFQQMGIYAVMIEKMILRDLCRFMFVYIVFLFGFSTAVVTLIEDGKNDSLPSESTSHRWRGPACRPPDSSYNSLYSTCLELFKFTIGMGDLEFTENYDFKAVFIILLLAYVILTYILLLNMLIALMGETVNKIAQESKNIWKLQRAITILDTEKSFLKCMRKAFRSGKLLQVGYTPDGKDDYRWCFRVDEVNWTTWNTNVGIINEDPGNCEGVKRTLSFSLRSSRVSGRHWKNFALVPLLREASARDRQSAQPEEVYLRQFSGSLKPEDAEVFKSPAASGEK
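Fluo-8 calcium influx in TRPV1-expressing cells, kinetic read (ex 480/em 520 nm). Compound added and read 3 min for agonist activity, followed by capsaicin at EC20 final and 2 min further read for enhancement.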
Menin-MLL FL inh: displaces fluorescein MLL peptide from human menin | FP activity change, % at 61.4 µM | AID 1766 | 290,000 tested, under 10 active | Fluorescence polarization, fluorescein-MLL peptide displacement from menin; inconclusive = falling polarisation curve, or a change in total fluorescence; inactive = total fluorescence flat and polarisation flat or rising; no compound was filed as active; the % refers to the polarisation; negative = inhibition;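 also: % of control where 0% means no effect; inhibitors lower the polarisation; unlabelled MLL peptide was the positive control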
Sfp inh: blocks B. subtilis Sfp PPTase activity | Q9F4F7 | Biochemical Sfp PPTase activity, qHTS | Potency, µM, for inactives: max response, negative = inhibition, actives largely listed as inhibitors | hit rate 3.5% among 310,000 | AID 1490; active = well fitted inhibition curve with a large enough effect; inconclusive = small, poorly fitted or top-dose-only effect, or another doubt; inactive = no such curve, though single readings can be large or run the other way;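 also: the enzyme is Sfp with the accession as filed and its product quenches rhodamine fluorescence; potency is read from the fitted curve at half-maximal effect; 0% = enzyme reaction without inhibitor and -100% = no enzyme wells; top concentration of the series not given in the record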
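Reaction rates are the 30-min fluorescence difference (ex 525, em 598 nm) in wells containing 15 nM Sfp, 5 uM rhodamine-CoA and 12.5 uM BHQ-2-YbbR at pH 7.6 with 10 mM MgCl2.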
ClpP mod: qHTS Assay for Activators of ClpP. ATP-dependent Clp protease proteolytic subunit (Bacillus subtilis (strain 168)), P80244. purified B. subtilis ClpP, FRET peptide cleavage, 20 min. Potency, µM (series often up to 57.5 µM), for the others: top-dose activity change, negative = active. hit rate 1.9% among 340,000. AID 651965, 2013; active = well fitted falling curve with a large enough effect; inconclusive = small, poorly fitted or top-dose-only effect; inactive = no such curve, though single readings can be large or run the other way; also: potency is read from the fitted curve at half-maximal effect; the source files actives as falling curves though it sought activators and does not explain the sign; nearly all actives have a fitted effect of over 65% in size; many hits overshoot -100%
Target sequence (P80244 whole entry, looked up): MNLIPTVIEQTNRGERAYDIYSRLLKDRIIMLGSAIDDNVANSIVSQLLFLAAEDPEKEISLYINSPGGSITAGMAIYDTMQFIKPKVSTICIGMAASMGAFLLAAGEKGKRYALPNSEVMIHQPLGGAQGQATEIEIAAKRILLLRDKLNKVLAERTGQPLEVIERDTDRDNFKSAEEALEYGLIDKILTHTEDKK
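ClpP 10 microg/mL final, pH 8 Tris/KCl buffer with BSA, glycerol, Tween-20; compound pinned in; FRET-FV substrate; RT 20 min; Ex320/Em430; ΔFRET vs ADEP 5.8 microM, DMSO, no enzyme.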
CtBP-E1A blk: blocks the CtBP interaction with E1A | AlphaScreen GST-E1A/His-CtBP binding, 1536-well; hits give low values; control for the full effect not named in the record | activity change, % (concentration not given with the values) | hit rate 0.49% among 340,000 | AID 651724; in the data active means activity change below about -65%; inconclusive means about -30% to -65%; inactive means above about -30%; also: % is scaled to controls: 0 for no effect and ±100 for the full control effect
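AlphaScreen with 125 nM GST-E1A and 125 nM His-CtBP (5X stocks) in Tris pH 8.0, 300 mM NaCl, BSA, Tween 20, TCEP. Compounds preincubated 2 h at 37 deg C, then glutathione donor/nickel acceptor beads added for 1 h at 37 deg C in dark.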
gsp antagonist: antagonists of gsp mutant (McCune-Albright syndrome) | gsp-mutant cells, cAMP HTRF, 30 min; control for the full effect not named in the record | Potency, µM (series often up to 76.9 µM), without a hit: top-dose activity change, negative = inhibition, actives largely listed as inhibitors | hit rate 0.4% among 340,000 | AID 624288; active = falling curve of any shape with a large fitted effect; inconclusive = falling curve, mostly with a smaller effect; inactive = flat or rising curve; cell line not stated here;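 also: intracellular cAMP measured with PDE inhibitor Ro 20-1724 present during compound exposure; potency is read from the fitted curve at half-maximal effect; % is scaled to controls: 0 for no effect and ±100 for the full control effect; nearly all actives have a fitted effect of over 65% in size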
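Measurement of cellular cAMP by homogeneous time-resolved fluorescence following a 30 min compound exposure at 37C. The PDE inhibitor […] was present throughout; the assay buffer was DPBS with 0.05% BSA and 0.005% Tween 20.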
gsp agonist: gsp mutant agonism. Potency, µM (doses to about 76.9 µM), inactives show top-dose activation (cAMP increase), hits mostly activators. hit rate 0.13% among 340,000. gsp mutant cells, cAMP HTRF, 30 min; control for the full effect not named in the record; active = well fitted activation curve with a large enough effect; inconclusive = small, poorly fitted or top-dose-only effect, or another doubt; inactive = no such curve, though single readings can be large or run the other way; cell line not stated here;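 also: phosphodiesterase inhibitor Ro 20-1724 added with compounds to block cAMP breakdown; potency is read from the fitted curve at half-maximal effect; nearly all actives have a fitted effect of over 60% in size; about a fifth of the inactives were tested at one dose only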
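Cells in DMEM/10% FBS with G418 were pretreated with compounds in DMSO plus […] (300 uM stock) for 30 min at 37C. cAMP was measured by HTRF (cAMP-d2 plus anti-cAMP antibody-K) after 30 min at room temperature.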
Active calls of the source: *; ? = inconclusive; nt = no result given; [ ] = dose if it differs, or a comment.

(1) CC(C)COc1cccc(-c2cc(C(=O)Nc3ccon3)c3ccccc3n2)c1
(2) COc1ccc2nc(SCC(=O)NC(C)C)[nH]c2c1
(3) CCc1n(CC(O)COCC2CC=CCC2)c2ccccc2[n+]1C (configuration not stated)
(4) CCNC(=O)NC(=O)C(C)OC(=O)CCS(=O)(=O)c1ccc(C)cc1 (configuration not stated)
(5) c1ccc(-c2csc3ncn4cnnc4c23)cc1
(6) CC(=O)N1c2ccc(S(=O)(=O)NCCc3ccccc3)cc2CC1C (configuration not stated)
(7) NC(=O)C1CCN(c2oc(-c3ccccc3)nc2S(=O)(=O)c2ccc(Br)cc2)CC1
(8) CCOC(=O)C1C(=O)NC(c2ccccc2)=NC1c1ccc(C(C)C)cc1 (configuration not stated)

Compound	1	2	3	4	5	6	7	8
TRPV1 PAM	2	4	-7	2	12	3	2	-6
Menin-MLL FL inh	-4.0	5.5	3.3	-3.3	5.5	1.5	nt	0.7
Sfp inh	10%	22%	6%	16%	10%	25%	-17%	24%
ClpP mod	nt	-1.4%	-0.5%	-3.5%	-5.7%	1.2%	-4.0%	1.4%
CtBP-E1A blk	0	0	6	0	-5	nt	-7	3
gsp antagonist	-1%	16%	5%	6%	13%	-13%	19%	5%
gsp agonist	-3%[15.4 µM]	7%	5%[15.4 µM]	0%[15.4 µM]	-19%	?	-18%[15.4 µM]	-16%

Just TRPV1 PAM and gsp agonist, for some of the entries so far:
nr	smiles	TRPV1 PAM	gsp agonist
2	COc1ccc2nc(SCC(=O)NC(C)C)[nH]c2c1	4	7%
3	CCc1n(CC(O)COCC2CC=CCC2)c2ccccc2[n+]1C (configuration not stated)	-7	5%[15.4 µM]

Other entries.
(9) Cc1ccc2nc(C(=O)N3CCc4c([nH]c5ccccc45)C3c3ccccn3)cn2c1 (configuration not stated)
(10) Cc1cccc(C(=O)N/C(=C\c2ccco2)C(=O)N2CCCC2)c1
(11) CC(=O)Nc1cccc(-c2nnc3c4ccccc4c(C)nn23)c1
(12) CCOC(=O)N1CCC(NC(=O)c2cccnc2SC)CC1
(13) N#CCCn1cc(C(=O)Nc2ccc([N+](=O)[O-])cc2)c(-c2cccs2)n1
(14) COc1ccc(COC(=O)NNC(=O)c2ccccc2Cl)cc1
(15) Cc1ccc(NC(=O)CSc2nnc(N)s2)c([N+](=O)[O-])c1
(16) CCOC(=O)CNC(=O)CSc1nnnn1-c1cc(C)ccc1C

Compound	9	10	11	12	13	14	15	16
TRPV1 PAM	-1	-2	1	-3	-3	-4	12	3
Menin-MLL FL inh	-0.3	11	-1.9	-1.1	2.1	-3.7	1.8	-2.3
Sfp inh	-7%	?	14%	-6%	13%	17%	15%	19%
ClpP mod	nt	1.4%	nt	0.1%	nt	-1.4%	nt	-0.6%
CtBP-E1A blk	-14	nt	nt	5	1	-2	4	11
gsp antagonist	nt	-3%	nt	-6%	-18%	7%	-7%	-7%
gsp agonist	-11%[15.4 µM]	-6%	nt	30%	-14%	-3%	-4%[15.4 µM]	-3%

Looked up above.
Result of cpd 16 in gsp agonist: -3%
Result of cpd 11 in TRPV1 PAM: 1

Additional structures.
(17) Cc1nnc(SCC(=O)Nc2nccs2)o1
(18) O=c1c2ccccc2cnn1Cc1n[nH]c(=S)n1-c1ccccc1F
(19) CC(C)Cc1nc2sc3c(=O)[nH]cnc3c2c2c1CCC2
(20) COc1ccc(/C=C/C(=O)Nc2cc(C(F)(F)F)ccc2Cl)cc1OC
(21) CSc1nc(N2CCOCC2)cc(N2CCOCC2)n1
(22) Cc1ccc(OCC(=O)NC(=S)Nc2ccccn2)c(Br)c1
(23) O=C(NCc1ccc2c(c1)OCO2)Nc1ccc2ccccc2c1
(24) COc1ccc(CNC(=O)C2CC=CCC2C(=O)O)cc1OC (configuration not stated)

Compound	17	18	19	20	21	22	23	24
TRPV1 PAM	-1	-9	24	-10	-7	3	12	?
Menin-MLL FL inh	nt	1.4	5.5	0.7	-2.4	nt	3.7	-3.2
Sfp inh	-20%	7%	23%	-1%	23%	6%	-6%	-16%
ClpP mod	0.5%	nt	-16%	-29%	nt	7.2%	-0.9%	?
CtBP-E1A blk	-73*	4	0	-3	-5	9	-22	0
gsp antagonist	13%	-9%	0%	-15%	11%	0%	3%	0%
gsp agonist	4%	?	-5%	-43%[inhibitor]	-8%[15.4 µM]	4%	4%[15.4 µM]	8%

(25) COc1cc(/C=C2\SC(N)=NC2=O)cc(Br)c1O
(26) Cc1ccc(-c2csc(C(C#N)=C3CCCC3)n2)cc1
(27) COc1cc2c(c3oc(=O)cc(CC(=O)O)c13)CCC(C)(C)O2
(28) CN(Cc1ccc(F)cc1)C(=O)c1ccc(NC(=O)CC2SC(N3CCCC3)=NC2=O)cc1 (configuration not stated)
(29) CC1=C(CC(=O)NCC(=O)NCC(=O)O)c2cc(F)ccc2/C1=C/c1ccc(S(C)=O)cc1 (configuration not stated)
(30) CC(C(=O)Nc1cccc(C#N)c1)N(C)CCOc1ccccc1 (configuration not stated)
(31) CCOC(=O)C1CCCN(c2ncnc3c2cnn3-c2ccc(Cl)cc2)C1 (configuration not stated)
(32) CCN(CC(=O)Nc1cc(Cl)ccc1C)C(=O)COc1ccccc1F

Compound	25	26	27	28	29	30	31	32
TRPV1 PAM	-8	-7	-12	-9	11	-20	?	3
Menin-MLL FL inh	?	12	-5.4	nt	0.1	3.2	-0.6	1.2
Sfp inh	4%	-24%	12%	nt	18%	3%	-2%	19%
ClpP mod	-0.1%	-2.1%	3.9%	-3.9%	nt	nt	-15%	nt
CtBP-E1A blk	nt	5	nt	-19	-18	7	16	3
gsp antagonist	-22%	3%	-7%	8%	-1%	1%	-4%	-2%
gsp agonist	-23%	5%	17%	3%	17%	5%[15.4 µM]	-58%[inhibitor]	2%[15.4 µM]

(33) CCOC(=O)c1c(N2C(=O)CC(Sc3ccccc3C(=O)O)C2=O)sc(C)c1C (configuration not stated)
(34) CN(C)c1ccc(-c2noc(C3CCN(S(=O)(=O)c4cccc(C(=O)O)c4)CC3)n2)cc1
(35) Cc1ccc(S(=O)(=O)N2CCCCC2)cc1NC(=O)c1ccc(=O)[nH]c1
(36) CCc1nc(C)cn1S(=O)(=O)c1cc(Br)ccc1OC
(37) NC(=O)CC(NC(=O)Cc1ccc(Br)cc1)c1ccc(NC2CC3CCC2C3)c([N+](=O)[O-])c1 (configuration not stated)
(38) Oc1c(Br)cc(Br)cc1C=NCc1ccc(F)cc1
(39) O=C(OCc1ccc([N+](=O)[O-])cc1)C1CCN(S(=O)(=O)c2ccccc2)CC1
(40) CSc1ccc(S(=O)(=O)NCCCn2ccnc2)cc1

Compound	33	34	35	36	37	38	39	40
TRPV1 PAM	-5	0	nt	-14	1	-10	-1	10
Menin-MLL FL inh	8.2	2.5	nt	4.2	-2.1	?	-2.7	-1.0
Sfp inh	7.9µM*	-14%	nt	-12%	15%	-48%	8%	18%
ClpP mod	13%	-4.6%	-0.1%	-3.6%	-0.5%	nt	0.6%	nt
CtBP-E1A blk	-1	5	2	-7	nt	7	1	-4
gsp antagonist	17%	?	nt	-5%	-12%	?	4%	6%
gsp agonist	24%	13%	-28%	-64%[inhibitor]	-52%[inhibitor]	-27%	-1%[15.4 µM]	-6%

From no. 34 up to 38, copied from above:
(34) CN(C)c1ccc(-c2noc(C3CCN(S(=O)(=O)c4cccc(C(=O)O)c4)CC3)n2)cc1
(35) Cc1ccc(S(=O)(=O)N2CCCCC2)cc1NC(=O)c1ccc(=O)[nH]c1
(36) CCc1nc(C)cn1S(=O)(=O)c1cc(Br)ccc1OC
(37) NC(=O)CC(NC(=O)Cc1ccc(Br)cc1)c1ccc(NC2CC3CCC2C3)c([N+](=O)[O-])c1 (configuration not stated)
(38) Oc1c(Br)cc(Br)cc1C=NCc1ccc(F)cc1

Compound	34	35	36	37	38
TRPV1 PAM	0	nt	-14	1	-10
Menin-MLL FL inh	2.5	nt	4.2	-2.1	?
Sfp inh	-14%	nt	-12%	15%	-48%
ClpP mod	-4.6%	-0.1%	-3.6%	-0.5%	nt
CtBP-E1A blk	5	2	-7	nt	7
gsp antagonist	?	nt	-5%	-12%	?
gsp agonist	13%	-28%	-64%[inhibitor]	-52%[inhibitor]	-27%

The listing continues.
(41) COC(=O)c1cc(Oc2ccc(C(=O)OC)cc2N)cc(C(=O)OC)c1
(42) COc1cccc(CN2CCN(C(=S)NCc3ccc(Cl)cc3)CC2)c1
(43) CC1CCCCC1NC(=O)COC(=O)CCC(=O)c1cccs1 (configuration not stated)
(44) COc1ccc(CN(C)C(=O)c2ccc(NS(=O)(=O)c3ccc(F)cc3)cc2)c(OC)c1
(45) CCCCNc1cc(NC(C)=O)cc2cc(OC)c(OC)cc12
(46) CCOC(=O)C(=CNc1ccc2c(c1)c1ccccc1n2CC)C(=O)OCC
(47) CCN(CC)S(=O)(=O)c1ccc(NCc2ccccn2)nc1
(48) O=C1NC(=O)C(=C2CCCCCC2)S1
(49) CCc1cc(CNC(=O)CC2C(=O)NCCN2CC2CCCCC2)on1 (configuration not stated)
(50) Cc1cc(C(=O)COC(=O)c2ccc(CO)cc2)c(C)n1CC1COc2ccccc2O1 (configuration not stated)
(51) O=C(CSc1ncccc1C(=O)O)NC1CCCCCCC1

Compound	41	42	43	44	45	46	47	48	49	50	51
TRPV1 PAM	5	-8	-13	16	1	-18	0	-9	-2	11	7
Menin-MLL FL inh	1.2	1.3	nt	nt	5.3	1.4	-1.3	-0.3	-6.9	16	4.3
Sfp inh	-19%	15%	nt	-11%	1%	?	5%	23%	15%	-9%	13%
ClpP mod	-3.9%	-3.6%	-1.3%	-1.0%	?	?	-7.3%	-1.2%	nt	0.7%	-0.7%
CtBP-E1A blk	-10	-25	-4	-1	11	nt	-4	1	2	nt	1
gsp antagonist	-3%	-11%	3%	-27%	?	32µM*	-17%	9%	5%	?	-1%
gsp agonist	0%	-11%	19%	28%	-46%[inhibitor]	1%	?	-7%[15.4 µM]	-1%[15.4 µM]	-28%	-23%
